GALR2 agonist = GALR2 receptor agonists, primary screen, cell-based. Galanin receptor type 2 (Homo sapiens), O43603. GALR2-expressing cells, agonist activation read-out. activation, %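 (tested at 5 µM)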. 140,000 compounds, 0.48% hits. AID 803, 2007;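 active = above mean plus 3 SD of all compounds, about 5% in these data, not always enough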;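 also: 0% = vehicle buffer wells and 100% = reference agonist at full effect; tested in CHO reporter cells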
Target sequence (O43603 whole entry, looked up): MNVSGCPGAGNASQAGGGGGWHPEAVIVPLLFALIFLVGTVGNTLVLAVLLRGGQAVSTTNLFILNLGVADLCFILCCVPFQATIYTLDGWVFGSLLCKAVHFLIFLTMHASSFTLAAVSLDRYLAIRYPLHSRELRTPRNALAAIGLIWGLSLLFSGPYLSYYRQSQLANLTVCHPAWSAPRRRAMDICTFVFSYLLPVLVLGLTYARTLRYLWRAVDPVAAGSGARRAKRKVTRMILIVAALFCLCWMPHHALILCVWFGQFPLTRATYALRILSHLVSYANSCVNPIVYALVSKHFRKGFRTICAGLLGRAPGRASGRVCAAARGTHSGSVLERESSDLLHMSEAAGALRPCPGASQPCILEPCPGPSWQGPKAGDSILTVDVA
HSV augment = enhancers of HSV replication in host cells, fold increase, host cell viability. AID 1956, 2009. 220,000 compounds, 0.005% hits. HSV replication augmentation in cells. maximum fold increase;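 active = peak rise of 1.5-fold or more in the series; tested in PC3 cells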;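 also: first round at 10 µM; read as green reporter fluorescence; hits show the peak of a series up to 25 µM; 1 = signal of infected wells without compound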
PKD1 inh = inhibitors of human PKD1 kinase, biochemical, fluorescence polarization; PKD1 kinase fluorescence polarization assay; inhibition, %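 (about 10 µM by stock and volumes)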; 200,000 compounds, 0.056% hits; AID 797, 2007;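 active = inhibition of 50% or more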;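 also: controls were vehicle for no effect and a reference inhibitor for full effect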
Insulin prom inh = inhibitors of insulin promoter-driven GFP, primary screen, imaging, TRM-6 cells (human fetal islet line), eGFP reporter, cell count. 130,000 compounds, 0.9% hits. reporter expression induced with tamoxifen. inhibition, % at 2 µM;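 active = inhibition above the mean plus 3 SD, with well images judged a real hit on visual review, cut at about 60% in these data, passing the limit was not always enough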
RGS16-Gao = modulators of RGS16 binding to Galphao, primary screen, biochemical, human proteins, multiplexed bead flow cytometry; Regulator of G-protein signaling 16 (Homo sapiens) + Guanine nucleotide-binding protein …; bead-based flow cytometry RGS16-Galphao binding, fluorescence; actives lie on both sides; binding response (% of control), % at 10 µM; 220,000 compounds, 0.38% hits;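 active = below 25% or above 175%, edge rows of some plates excepted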;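 also: Galphao activated by GDP with aluminum fluoride before binding; 100% = wells without compound and 0% = beads without RGS; some results beyond the cut were filed as inactive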
Target sequence (O15492 whole entry, looked up): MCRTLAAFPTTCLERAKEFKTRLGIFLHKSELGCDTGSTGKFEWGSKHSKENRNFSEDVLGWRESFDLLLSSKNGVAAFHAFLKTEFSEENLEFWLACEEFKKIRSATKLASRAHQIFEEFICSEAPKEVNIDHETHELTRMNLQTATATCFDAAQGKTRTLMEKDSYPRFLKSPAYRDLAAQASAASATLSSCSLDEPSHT
Target sequence (P09471 whole entry, looked up): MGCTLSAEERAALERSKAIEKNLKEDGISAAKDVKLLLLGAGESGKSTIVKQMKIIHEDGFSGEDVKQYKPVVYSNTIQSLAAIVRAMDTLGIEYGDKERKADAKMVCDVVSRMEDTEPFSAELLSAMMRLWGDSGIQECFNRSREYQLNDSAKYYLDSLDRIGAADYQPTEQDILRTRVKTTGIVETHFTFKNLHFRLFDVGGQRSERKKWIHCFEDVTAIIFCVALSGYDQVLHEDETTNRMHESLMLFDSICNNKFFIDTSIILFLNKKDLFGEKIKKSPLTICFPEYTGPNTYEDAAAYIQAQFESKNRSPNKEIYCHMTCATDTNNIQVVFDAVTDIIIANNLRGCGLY
Insulin prom inh cell count = second read-out of Insulin prom inh, no call of its own (marks repeat the call); normalized cell count, %; measured here: cell count, toxicity; reference of the scale not given here;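 cells exposed to compound for 48 h; stained nuclei by imaging scaled within each plate; lower means fewer cells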
HSV augment primary fold = also measured in HSV augment; calls as there; fold increase; compound at 10 µM; measured here: primary screen fold increase 10 uM; tested in PC3 cells;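 GFP signal in the first replicate; 1 = infected wells without compound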
An asterisk follows results filed as active; i = inactive; x = no result given; [ ] = remark or other dose.

SMILES	GALR2 agonist	HSV augment	HSV augment primary fold	PKD1 inh	Insulin prom inh	Insulin prom inh cell count	RGS16-Gao
Cc1ccc(N2CN=C3SCC(=O)N3C2)cc1C	x	i	1.2	4	-29	90	95
O=C(CN1CCN(S(=O)(=O)c2ccc(Br)cc2)CC1)N/N=C/c1ccco1	-0.5	i	0.98	0	3	96	168
Cc1ccc(C(=O)Nc2nnc(NC(=S)Nc3ccccc3)s2)cc1	x	i	0.72	-4	x	x	94
COc1cc(Cl)c(S(=O)(=O)NCCCN2CCOCC2)cc1Cl	-1.6	i	0.79	-3	3	144	109
CCCCOc1ccc(/C=c2\sc3ncnn3c2=O)cc1	-0.7	i	0.98	-5	-6	93	108
O=C1CC(c2ccccc2)Sc2nc3ccccc3n21 (centres undefined)	x	i	0.91	-2	43	111	112
O=C(Oc1ccc(-c2cnc3ccccc3n2)cc1)c1ccc(Cl)c([N+](=O)[O-])c1	-1.0	i	0.81	-10	x	x	101
CCOC(=O)c1c(C)[nH]c(C(=O)OCC(=O)N2c3ccccc3CC2C)c1C (centres undefined)	0.0	i	0.98	-7	x	x	104
COc1ccc(CCNS(=O)(=O)c2ccc(OC)cc2)cc1	-3.4	i	1	4	3	47	102
CCCCC(=O)Nc1nc(C)c(-c2csc(Nc3ccccc3OC)n2)s1	0.8	i	0.84	8	-29	157	103
Cc1ccc(NC(=O)Nc2ccc3c(c2)N(C)C(=O)CS3)cc1C	0.3	i	0.86	2	x	x	105
O=C(O)C1C2C=CC(C2)C1C(=O)NC(c1ccccc1)c1ccccc1 (centres undefined)	-1.6	i	0.96	1	-50	238	104
CS(=O)(=O)N1CCCC(C(=O)NCc2ccc(F)cc2Cl)C1 (centres undefined)	-2.9	x	x	5	9	125	100
CC(C)C(=O)Nc1ccc2c(c1)nc(CCN1CCN(c3ccccc3)CC1)n2C	x	i	0.96	x	x	x	100
Cc1cccc(C(=O)Nc2sc(C(=O)N3CCCC3)c(C)c2C#N)c1	-1.7	i	1	-3	26	108	99
CC(=O)Nc1ccc(NC(=O)c2oc3cc(C)c(C)cc3c2C)cc1	-0.6	i	0.85	1	x	x	98
COc1ccccc1-c1c(C(F)(F)F)oc2cc(OC(=O)c3ccc([N+](=O)[O-])cc3)ccc2c1=O	-1.6	i	0.99	4	30	98	65
CCN(CC)C(=O)CSc1nc2ncccc2[nH]1	-1.2	i	0.96	10	35	90	80
Cc1c(NC(=O)c2cnn3cccnc23)c(=O)n(-c2ccccc2)n1C	-3.0	i	1.2	-7	75*	114*	100
CCOC(=O)C1CCCN(C(=O)Cc2c(C(=O)O)[nH]c3ccccc23)C1 (centres undefined)	-2.9	i	0.92	-7	x	x	107
Cc1nc2ccccc2c(=O)n1NC(=O)COc1ccccc1	-2.6	i	0.81	-2	13	119	111
Cc1nnc(NCCN2CCOCC2)[nH]c1=O	0.2	i	0.94	3	20	133	102
COc1ccc(/C=C(/C#N)C(=O)Nc2cccc(C)c2C)cc1C(=O)O	-1.5	i	0.97	0	-67	79	103
c1cncc(CNc2ncn[nH]2)c1	x	i	0.79	x	x	x	101
COc1ccc(-c2[nH]ncc2/C=N\NC(=O)c2ccc(C(C)(C)C)cc2)cc1OC	1.1	i	0.91	-1	6	100	109
Cn1ncc(Cl)c1C(=O)NC1C2CC3CC(C2)CC1C3 (centres undefined)	x	i	1	-1	25	28	108
Cc1cc2n(n1)C(c1ccsc1)Nc1ccccc1-2 (centres undefined)	1.1	i	0.85	-3	-12	112	113
CCOC(=O)c1[nH]c2ccc(OC)cc2c1C	-1.0	x	x	4	x	x	78
O=C(/C=C/c1ccccc1)N(Cc1ccc(Cl)cc1)C1CCS(=O)(=O)C1 (centres undefined)	x	i	0.85	x	x	x	105
CC(=O)Nc1ccc(S(=O)(=O)N2CCCCC2c2cccnc2)cc1 (centres undefined)	-2.5	i	0.88	-12	x	x	100
S=C(Nc1ccc2snnc2c1)N1CCN(c2ccccn2)CC1	-2.0	x	x	0	x	x	93
CC(=O)NCCn1c(SCC(=O)Nc2ccc(C)cc2)nc2ccccc2c1=O	x	i	1	6	-40	100	197
CCOc1ccccc1NC(=O)Cn1c(-c2ccc(Cl)cc2)noc1=O	x	i	1	x	x	x	103
C/C(=N\O)C(=O)NCCCNCCCN(C)C	-0.6	i	0.94	-3	3	115	101
Cc1ccc2nc(-c3ccccn3)oc2c1	-2.5	i	0.63	-6	63	134	98
CCOC(=O)C(C(=O)NCc1cccc(OC)c1)c1ncc(C(F)(F)F)cc1Cl (centres undefined)	-1.8	i	0.78	10	-42	73	126
CC(C)c1ccc(C(C(=O)NC(C)(C)C)N(C(=O)CNC(=O)c2ccco2)c2cccnc2)cc1 (centres undefined)	-1.9	i	1	-3	59	140	101
COc1cc(OC)c2c(O)c3c(c(-c4c5c(c(O)c6c(OC)cc(OC)cc46)CO[C@@H](C)[C@H]5O)c2c1)[C@H](O)[C@H](C)OC3	x	i	0.73	17	x	x	102
O=S(=O)(NCc1ccccc1Cl)c1cccs1	x	i	1.1	1	44	77	100
COc1cc(Br)c(C(C)NC(=O)c2ccc(C)cc2)cc1OC (centres undefined)	-0.6	i	0.99	2	x	x	110
O=C(N/N=C/c1c(O)n(-c2ccccc2Cl)c(=O)c2ccccc12)c1cccnc1	x	x	x	5	x	x	102
CCNC(=O)N1CCCC(C(=O)c2ccc3cc(OC)ccc3c2)C1 (centres undefined)	x	i	0.97	-3	x	x	114
C1CCCN(c2nc3nonc3nc2N2CCCCCC2)CC1	x	i	1	4	3	100	101
CCN(CC)C(=S)Nc1ccc(OC)cc1	-0.1	i	0.97	12	27	146	98
O=C(Nc1ccc(Oc2ccc(C(=O)O)c(C(=O)O)c2)cc1)c1cccs1	x	i	1	-2	x	x	103
COc1ccccc1N1CCN(CC(O)c2ccc3cc[nH]c3c2)CC1 (centres undefined)	-1.6	i	0.87	-6	x	x	106
COc1cc2c(cc1OC)-c1nc3ccccc3c(=O)n1C(C)(C)C2	0.3	i	0.92	3	-39	56	106
O=C(CSc1nc(-c2ccccc2)c(-c2ccccc2)[nH]1)Nc1ccc2c(c1)OCO2	-1.5	i	0.94	-4	-55	124	107
Cc1cc(F)ccc1S(=O)(=O)N1CCCOC1CNC(=O)C(=O)NCc1ccco1 (centres undefined)	-1.4	i	0.98	-10	-75	135	100
Cc1ccc(NC(=O)CCNS(=O)(=O)c2cc(Br)cnc2N)c(Cl)c1	-1.3	i	1	7	56	114	112
Later entries.
SMILES	GALR2 agonist	HSV augment	HSV augment primary fold	PKD1 inh	Insulin prom inh	Insulin prom inh cell count	RGS16-Gao
COc1ccc2c(c1)-c1ccccc1S(=O)(=O)N2C(C)=O	-0.8	i	1.1	0	-184	110	96
CCC(=O)Nc1ccc(NC(=O)CSc2nnnn2-c2cccnc2)cc1C	-3.8	i	0.89	12	x	x	102
Cc1cc(C)c2nc(NC(=O)c3ccc(OCC4CCCO4)cc3)sc2c1 (centres undefined)	-0.7	i	0.86	-10	48	125	106
COc1ccc(C(=O)Nc2cc(OC)cc(OC)c2)cc1	-1.5	i	0.95	6	-7	136	100
Cc1nn(CC(=O)NN)c(C)c1Br	x	i	1	x	x	x	103
Cc1ccc(OCC(=O)Nc2sc3c(c2C#N)CC(C)(C)NC3(C)C)cc1	x	i	0.85	3	x	x	101
Cc1ccc(C)c(NC(=O)CN(C)C(=O)[C@@H](NC(=O)c2ccc(C(C)(C)C)cc2)C(C)C)c1	-2.4	x	x	-7	x	x	103
Cc1ccc(NC(=O)NC(=O)CSc2nnc(-c3ccc(Cl)cc3Cl)n2N)c(C)c1	-0.5	i	0.87	1	x	x	102
CC(C)CCOc1ccc(C(=O)O)cc1	-2.0	i	0.92	-2	x	x	86
CCOC(=O)c1c(C)c[nH]c1C	x	i	1	4	29	82	101

Sorted by the number under GALR2 agonist (lowest first): 3 of the compounds above.
Structure	GALR2 agonist	HSV augment primary fold	PKD1 inh	RGS16-Gao
CCC(=O)Nc1ccc(NC(=O)CSc2nnnn2-c2cccnc2)cc1C	-3.8	0.89	12	102
CC(C)CCOc1ccc(C(=O)O)cc1	-2.0	0.92	-2	86
Cc1ccc(NC(=O)NC(=O)CSc2nnc(-c3ccc(Cl)cc3Cl)n2N)c(C)c1	-0.5	0.87	1	102

The listing continues:
SMILES	GALR2 agonist	HSV augment	HSV augment primary fold	PKD1 inh	Insulin prom inh	Insulin prom inh cell count	RGS16-Gao
COC(=O)C1CCCN1C(=O)C1CCCN1C(=O)CNC(=O)OCc1ccccc1 (centres undefined)	-4.4	i	0.91	-13	0	136	120
O=C(CSc1nnnn1-c1ccc2c(c1)OCO2)NCc1ccccc1	-1.1	i	0.81	-16	5	84	112
COC(=O)CN(c1c(C)cccc1C)S(C)(=O)=O	-1.1	i	1	-5	x	x	102
CC(C)CCNC(=O)Nc1ccc2c(c1)N(C)C(=O)CS2	-3.1	i	0.83	-8	24	134	105
CCC(=O)N1c2ccccc2C(N(C(=O)CC)c2ccccc2)CC1C (centres undefined)	x	i	1.1	x	x	x	75
Cn1c(C(=O)NCCCN2CCN(c3ccccc3F)CC2)cc2c(=O)n(C)c3ccccc3c21	-1.9	i	1	-6	x	x	107
O=C(NCc1cccc(Cl)c1)c1ccc(S(=O)(=O)Nc2cccc(C(F)(F)F)c2)cc1	1.3	i	0.97	-2	-11	157	107
CSCCC(NC(=O)COc1ccccc1)C(=O)OCC(=O)c1cc2ccccc2o1 (centres undefined)	-1.8	i	1	5	-27	139	101
COc1ccc(OCC(O)CNC(=O)Nc2ccccc2)cc1 (centres undefined)	x	i	0.97	x	x	x	104
O=C(NCc1cccnc1)C1CCC(CNS(=O)(=O)c2cccc3nsnc23)CC1 (centres undefined)	x	i	0.95	x	x	x	93
Cc1ccc(CNC(=O)C2CCCN(S(=O)(=O)c3c(C)[nH]c(=O)[nH]c3=O)C2)cc1 (centres undefined)	-0.4	i	0.9	3	36	117	107
CC(C)(C)C1CCC(OC(=O)C[N+]2(C)CCCC2)CC1 (centres undefined)	x	i	1	-1	-12	112	36
CCC(CC)C(=O)Nc1cccc(C(=O)Nc2ccc3c(c2)OCO3)c1	-1.5	i	0.98	5	x	x	55
O=C(CCCN1C(=O)CCC1=O)Nc1ccc(Br)cc1F	-2.4	i	1	-4	7	144	65
CCOc1nc2c(c(-c3cccs3)c1C#N)Cc1ccccc1-2	x	i	1	x	x	x	101
Cc1ccc2nc(-c3cccnc3)c(NC3CCCCC3)n2c1	-0.8	i	1.1	-2	-3	67	203*[activator]
CCOC(=O)C1=C(c2ccccc2)NC(=O)NC1c1ccc(OC)cc1 (centres undefined)	x	i	1	10	44	58	57
O=C(Nc1cccc(Cl)c1)Nc1ccc(Cl)cn1	-1.2	i	0.93	-2	39	111	96
CCc1ccc(N2C(=O)CN(Cc3sccc3C)C2=S)cc1	x	i	1.1	1	x	x	101
CCOC(=O)CSc1nccc(N(C)C)c1C#N	-1.2	i	0.87	-12	-11	84	109
COC(=O)c1cc(Br)c(=O)n(CCC2=CCCCC2)c1	-2.7	i	0.93	-3	25	121	102
CCn1cnc2sc(-c3ccccc3)cc2c1=O	-0.3	i	0.89	-5	x	x	93
COc1ccc(CC(=O)N2CCCc3ccccc32)cc1OC	-1.5	i	0.93	-11	40	140	85
CC(C)c1ccc(/C=C/C(=O)O)cc1	x	i	0.93	x	x	x	94
CC(=O)Nc1cc(C(F)(F)F)ccc1N1CCOCC1	-1.8	i	1	-1	-56	67	96
Cc1csc2c(=O)sc(NC(=O)c3ccc(F)cc3Cl)nc12	x	i	0.97	x	x	x	104
O=C(C1CC2CCC1C2)N1CCN(Cc2ccc3c(c2)OCO3)CC1 (centres undefined)	-1.7	i	0.89	0	46	117	101
c1ccc(CSc2snnc2-c2ccccc2)cc1	-1.1	i	1.3	2	11	145	106

In the list so far, these contain a CF3 group.
SMILES	GALR2 agonist	HSV augment	HSV augment primary fold	PKD1 inh	Insulin prom inh	Insulin prom inh cell count	RGS16-Gao
COc1ccccc1-c1c(C(F)(F)F)oc2cc(OC(=O)c3ccc([N+](=O)[O-])cc3)ccc2c1=O	-1.6	i	0.99	4	30	98	65
CCOC(=O)C(C(=O)NCc1cccc(OC)c1)c1ncc(C(F)(F)F)cc1Cl (centres undefined)	-1.8	i	0.78	10	-42	73	126
O=C(NCc1cccc(Cl)c1)c1ccc(S(=O)(=O)Nc2cccc(C(F)(F)F)c2)cc1	1.3	i	0.97	-2	-11	157	107
CC(=O)Nc1cc(C(F)(F)F)ccc1N1CCOCC1	-1.8	i	1	-1	-56	67	96

Rows were taken by chance; overall some 1.3% were active at least once.
